# PrP 5UTR inh – suppresses PrP 5' UTR mRNA reporter expression; cell-based PrP 5' UTR mRNA reporter, plate reader; inhibition, % (no concentration beside the values); 0.35% of 340,000 active;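 active = every replicate at 50% or more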;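 note: 0 = median of the neutral control wells; tested in H4 reporter cells; numbers are from one replicate; inactives centre near -14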
# Bead autofluor – compound fluorescence in toxin protease inhibitor counterscreen; compound autofluorescence counterscreen, microsphere flow cytometry; hits give high values; fluorescence intensity (test concentration not listed); 3.1% of 360,000 active;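 active = at least 3 SD above the mean of all compounds, about 16000 in these data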;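 note: 100 nL of 1 mM stock went into each well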
# * = called active by the depositor. A portion of the library; rates above refer to the full screens.
# The opening 2 entries as a preview:
SMILES,PrP 5UTR inh,Bead autofluor
CCOC(=O)[C@H]1[C@H]2COc3ccc(Br)cc3[C@@H]2N2C(=O)c3cc(OC)c(OC)cc3NC(=O)[C@@]12C,-14,4066
CCOc1ccc(N2C(=O)C(C)CNC2=S)cc1 (configuration not stated),-8,2827

# The list itself, previewed entries included:
SMILES,PrP 5UTR inh,Bead autofluor
CCOC(=O)[C@H]1[C@H]2COc3ccc(Br)cc3[C@@H]2N2C(=O)c3cc(OC)c(OC)cc3NC(=O)[C@@]12C,-14,4066
CCOc1ccc(N2C(=O)C(C)CNC2=S)cc1 (configuration not stated),-8,2827
O=C1NC(c2cccc3ccccc23)Nc2ccccc21 (configuration not stated),40,4278
CC(C)(C)OC(=O)[C@H](NC(=O)OCc1ccccc1)c1ccccc1,-3,3522
CCN1C(=O)CC(SC2CC(=O)N(CC)C2=O)C1=O (configuration not stated),-9,3040
NCCCC[C@@H](C(=O)N1CCNCC1)n1cc([C@@H](N)CC(N)=O)nn1,-25,4544
c1cc2c3c(cccc3c1)NN=N2,-18,3575
C[C@@]12C(=O)Nc3ccc(Br)cc3C(=O)N1[C@H]1c3ccccc3OC[C@@H]1[C@@H]2c1ccccc1,-23,3192
CCOC(=O)[C@H]1[C@H]2COc3ccc(OC)cc3[C@@H]2N2C(=O)CN(Cc3ccc(OC)cc3)C(=O)[C@@]12C,-7,3741
COc1ccc(Cl)cc1S(=O)(=O)NC(C)C(=O)NCCN1CCOCC1 (configuration not stated),-15,3643
O=C(NCCCCCCCN1CCCCCCC1)C(C1CCCCC1)C1CCCCC1,-12,3378
Cc1ccc(S(=O)(=O)N2[C@@H](c3ccccc3F)C(C(=O)O)=CC[C@H]2c2ccc3c(c2)OCO3)cc1,-25,3592
Cc1ccc(S(=O)(=O)N2[C@@H](c3ccc(Cl)cc3)C(C(=O)O)=CC[C@H]2c2ccc(Cl)cc2)cc1,-23,3656
Cc1ccc(/C=C2/CNC/C(=C/c3ccc(C)cc3)C2=O)cc1,-19,3952
C[C@@H]1CN([C@@H](C)CO)C(=O)c2cccc(NC(=O)Nc3ccc(F)cc3)c2O[C@@H]1CN(C)Cc1ccc(Oc2ccccc2)cc1,-4,4211
CCCCCCCCCCCCCCCCCCNc1ccn(C2OC(COP(=O)(O)OCC3OC(n4cc(F)c(=O)[nH]c4=O)CC3O)C(O)C2O)c(=O)n1 (configuration not stated),63*,3548
COc1c2c(c(OC)c3c1c(=O)c1ccccc1n3C)OCO2,-9,3771
Cc1ccc(S(=O)(=O)N2CC(C(=O)O)=CC[C@H]2c2ccc(Cl)cc2)cc1,-17,4048
C[C@H]1CN([C@@H](C)CO)C(=O)Cc2cc(NC(=O)CCC(F)(F)F)ccc2O[C@H]1CN(C)C(=O)Nc1ccc(F)cc1,-14,4183
COC(=O)C1=C(c2ccc(C(C)=O)cc2)C[C@@H]2CC[C@H]1N2C(=O)N1CCOCC1,-11,3015
CSCC[C@@H](C(=O)NCCCCCCCCCCC(=O)N1CCNCC1)n1cc(CCO)nn1,-12,2847
COC[C@@H]1NS(=O)(=O)c2ccc(Br)cc2O[C@H]1c1ccccc1,-13,3414
COc1ccc(Cl)cc1NC(=O)CN(C)C(=O)CN1C(=O)NC(C)(c2ccc3ccccc3c2)C1=O (configuration not stated),-6,3587
CCCCN1CC(COCc2ccccc2)Oc2cccc(OCCN3C(=O)[C@@H]4[C@H](C3=O)C3C=C[C@H]4C3)c2S1(=O)=O (some centres not stated),-20,4157

# Quoted at random: 2 entries already listed.
SMILES,PrP 5UTR inh,Bead autofluor
CSCC[C@@H](C(=O)NCCCCCCCCCCC(=O)N1CCNCC1)n1cc(CCO)nn1,-12,2847
Cc1ccc(/C=C2/CNC/C(=C/c3ccc(C)cc3)C2=O)cc1,-19,3952

# Some values from the entries so far:
# Under Bead autofluor, COC(=O)C1=C(c2ccc(C(C)=O)cc2)C[C@@H]2CC[C@H]1N2C(=O)N1CCOCC1 has 3015
# Under Bead autofluor, COc1ccc(Cl)cc1NC(=O)CN(C)C(=O)CN1C(=O)NC(C)(c2ccc3ccccc3c2)C1=O (configuration not stated) has 3587
# Under Bead autofluor, Cc1ccc(/C=C2/CNC/C(=C/c3ccc(C)cc3)C2=O)cc1 has 3952
# Under PrP 5UTR inh, Cc1ccc(S(=O)(=O)N2CC(C(=O)O)=CC[C@H]2c2ccc(Cl)cc2)cc1 has -17
# Under PrP 5UTR inh, COC[C@@H]1NS(=O)(=O)c2ccc(Br)cc2O[C@H]1c1ccccc1 has -13
# Under Bead autofluor, Cc1ccc(S(=O)(=O)N2[C@@H](c3ccc(Cl)cc3)C(C(=O)O)=CC[C@H]2c2ccc(Cl)cc2)cc1 has 3656

# Later entries
SMILES,PrP 5UTR inh,Bead autofluor
O=C(C[C@@H]1C/C=C\CC[C@@H](Cc2ccc(F)cc2)C(=O)OC[C@@H](Cc2ccccc2)NC1=O)NCCO,-16,3680
CCCCn1c(NC(=O)c2ccc(Br)o2)c(C(=O)OCC)c2nc3ccccc3nc21,-17,2499
C=CC[C@H](CC(=O)NCCO)C(=O)N[C@H](COC(=O)[C@@H](CC=C)Cc1ccc(F)cc1)c1ccccc1,-3,3817
O=C(C[n+]1ccccc1)N/N=C/c1ccc(C(=O)O)cc1,-4,3823
O=C(CC1CCCC1)N1CCN(S(=O)(=O)c2ccccc2)CC1,-16,3750
Oc1ccc2c3c1O[C@H]1c4[nH]c5ccccc5c4C[C@@]4(O)[C@@H](C2)N(CC2CC2)CC[C@]314,-18,4206
O=C1C2CC3N1CCC31c3ccccc3-n3c1c2ccc3=O (configuration not stated),-10,3836
CC(NC(=O)c1ccc(N(C)C)cc1)C1CC2CCC1C2 (configuration not stated),-10,3208
COc1ccc(SCCN2CC[C@@H](C(C)(C)C)CCC2=O)cc1,-17,2839
CC(=O)C1=C(O)C(CSCc2ccccc2)N(C)C1=O (configuration not stated),-8,3180
NC(=O)c1ncn([C@@H]2O[C@H](CNCc3cc(Br)ccc3OCc3ccccc3)[C@@H](O)[C@H]2O)n1,-12,2933
CC(C)C[C@@H](CN1CCC[C@@H]1CN1C(=O)C(=O)NC[C@@H]1Cc1ccccc1)N1C[C@H](Cc2ccccc2)N(CC2CCCCCC2)C(=O)C1=O,-15,3911
COc1cccc(C=NNc2nnc(NN=Cc3cccc(OC)c3OC)c3ccccc23)c1OC,-88,4089
C/C=C/C1=CC(=O)C[C@H](c2ccc(OC)c(OC)c2)C1,-15,3965
CC1(N=Cc2cc(Cl)ccc2O)COP(=O)(NC2CCCC2)OC1 (configuration not stated),-14,3805
C[C@H]1O[C@@H](O[C@H]2CC[C@@]3(C)C(CC[C@]4(C)C3C=CC3=C5CC(C)(C)CC[C@]5(CO)[C@H](O)C[C@]34C)[C@]2(C)CO)[C@H](O)[C@@H](O[C@@H]2O[C@H](CO)[C@@H](O)[C@H](O)[C@H]2O)[C@H]1O (some centres not stated),-20,4024
COC1CC(C)C(OC)c2cc(O)cc(c2O)NC(=O)C(C)=CC=CC(C)C(OC(N)=O)C(C)=CC(C)C1OC (configuration not stated),30,2894
C#CCOCCOCCOCCNc1nc(N2CCN(C(=O)[C@H](CCCCN)n3cc(CN)nn3)CC2)nc(N2CCN(C(=O)[C@H](CCC(=O)O)n3cc([C@@H](N)CCCCN)nn3)CC2)n1,-12,3487
CC1=C(C(=O)OCc2cc(C)on2)N2C(=O)[C@@H](NC(=O)OCc3cc(C)on3)[C@H]2SC1,-22,3305
O=C1CC[C@@H]2CC3(C[C@@H]4CCN1[C@H]24)Nc1cc([N+](=O)[O-])ccc1NC3=NC1CCCCC1 (some centres not stated),-26,3427
O=C(Nc1ccc(C(=O)N2CCCCC2)cc1)C1CC1,-11,3629
C[C@H]1CN([C@@H](C)CO)C(=O)Cc2cc(NS(C)(=O)=O)ccc2O[C@@H]1CN(C)CC1CC1,-20,3569
O=[N+]([O-])c1ccc(Cl)c(Cl)c1Cl,15,4244
C[C@H](CO)N1C[C@H](C)[C@@H](CN(C)S(C)(=O)=O)Oc2ccc(NC(=O)Nc3ccccc3)cc2C1=O,-18,4098
O=C(N/N=C/c1ccc(Cl)cc1Cl)c1ccc(-n2cnnn2)cc1,-26,3972
CC[C@@H](C)[C@@H]1CN([C@@H](C)CN2CCC[C@H]2CN2C(N)=NC[C@@H]2Cc2ccccc2)C(=N)N1CCc1ccc(Cl)c(Cl)c1,-22,3422
Cc1cccc(C(=O)N2[C@@H](C(C)C)COc3cc(Br)ccc3S2(=O)=O)c1,1,3793
N#Cc1ccc(C(=O)N2Cc3cnnn3-c3ccccc3C2C#N)cc1 (configuration not stated),4,3157
O=C(NC1CCCCCCC1O)c1ccccc1 (configuration not stated),-23,5698
C#CCOCCOCCOCCNc1nc(N2CCN(C(=O)Cn3cc(CCO)nn3)CC2)nc(N2CCN(C(=O)[C@H](C)n3cc(CCCN=C(N)N)nn3)CC2)n1,-17,3954
C=C1C[C@H](O)[C@@H]2[C@H](OC(=O)[C@H]2C)[C@H]2[C@H](C)[C@@H](O)C[C@@H]12,-24,4337
O=c1cc(-c2ccccc2)oc2cccc(O)c12,-32,5638
CC(=O)[C@H]1CC[C@H]2[C@@H]3C=CC4=CC(=O)CC[C@@]4(C)[C@@H]3CC[C@]12C,-28,6117
CCN(C(=O)CSc1ncccn1)c1c(N)n(Cc2ccccc2)c(=O)[nH]c1=O,0,5427
Cc1ccc(Cl)c2c1NC(=O)C2=O,-17,4000
CCOC(=O)[C@H]1[C@H]2COc3ccc(Cl)cc3[C@@H]2N2C(=O)c3ccc(C)cc3NC(=O)[C@@]12C,-5,2816
CC1Cc2cccc3ccc(=O)n(c23)C1 (configuration not stated),-2,3677
CC1=C(C(=O)O)CC(S(=O)(=O)O)C1(C)C (configuration not stated),-8,3568
CN1CCC(C(=O)C(=O)O)C1=O (configuration not stated),-25,2977
C1=NN(c2ccccc2)C=NN1c1ccccc1,-149,3952
O=C1CSC(=S)N1N=Cc1cccc2ccccc12,-3,3471
COc1cccc2c1cc1c(=O)n(CC(=O)N3CCN(c4cccc(C)c4C)CC3)nc(C)n12,-15,6092
COc1ccc(Cl)cc1C=CC=NNC(=O)c1ccncc1,-13,3557
Cc1sc(NC(=O)CSc2n[nH]c(N)n2)c(C#N)c1C,-13,3277
CC[C@@H]1C/C=C\Cc2ccccc2[C@H](C(=O)C[C@@H](O)CC(C)=O)OC1=O,-12,4221
CC(=O)Nc1ccc2c(c1)-c1ccc(F)cc1C2=O,-17,3836
Cc1cc2c(=Cc3ccc(N(C)C)cc3)c3ccccc3n2[n+]1C,-22,2647
C[C@@](Cc1ccc(O)c(O)c1)(NN)C(=O)O,-20,5845
C=CC[C@H](CC(=O)NCCO)C(=O)N[C@H](COC(=O)[C@@H](CC=C)CC(=O)OC(C)(C)C)Cc1ccccc1,-9,2823
CC(=O)c1cccc(OC(=O)c2ccccc2)c1,-67,3396
C#CCOCCOCCOCCNc1nc(N2CCOCC2)nc(N2CCN(C(=O)CCCCCCCCCCNC(=O)[C@@H](CCSC)n3cc(CCO)nn3)CC2)n1,-1,2960
Cc1cccc(OCCCC(=O)NNC(=O)c2ccccn2)c1,-8,3870
C=C(c1ccc2nc(NC(=O)OC)[nH]c2c1)c1cccs1,52,4532
C[C@H](CO)N1C[C@H](C)[C@@H](CN(C)Cc2ccc(C(=O)O)cc2)Oc2ccc(NS(=O)(=O)c3cn(C)cn3)cc2C1=O,-6,3914
O=C(Nc1ccc(F)cc1)c1ccccc1NC(=O)C1CCCCC1C(=O)O (configuration not stated),-35,2810
COC(=O)C1=C(c2ccc(C(C)=O)cc2)C[C@@H]2CC[C@H]1N2C(=O)N1CCC(O)CC1,-14,4076
CCOC(=O)[C@H]1[C@H]2COc3ccc(C)cc3[C@@H]2N2C(=O)CN(Cc3ccc(OC)cc3)C(=O)[C@@]12C,-19,6605
O=S(=O)(CCNCc1ccco1)NCc1ccccc1,-10,3837
N#Cc1c2ccc([N+](=O)[O-])cc2[n+]([O-])n1-c1ccccc1,-12,3847
CCCCC(CC)CN=C(N)NC(N)=NCCCCCCN=C(N)NC(N)=NCC(CC)CCCC (configuration not stated),-12,6522

# 5 entries from above, with values under each structure.
# Values run as follows: PrP 5UTR inh	Bead autofluor
C=CC[C@H](CC(=O)NCCO)C(=O)N[C@H](COC(=O)[C@@H](CC=C)CC(=O)OC(C)(C)C)Cc1ccccc1
→ -9	2823
CC(=O)c1cccc(OC(=O)c2ccccc2)c1
→ -67	3396
C#CCOCCOCCOCCNc1nc(N2CCOCC2)nc(N2CCN(C(=O)CCCCCCCCCCNC(=O)[C@@H](CCSC)n3cc(CCO)nn3)CC2)n1
→ -1	2960
Cc1cccc(OCCCC(=O)NNC(=O)c2ccccn2)c1
→ -8	3870
C=C(c1ccc2nc(NC(=O)OC)[nH]c2c1)c1cccs1
→ 52	4532

# Other records.
SMILES,PrP 5UTR inh,Bead autofluor
O=C(N/N=C/C(Cl)=C/c1ccccc1)c1ccc2c(c1)OCO2,-34,5217
Cc1cc2c(cc(C(=O)OCC(=O)NC3CCCCC3)n2C)o1,-17,2857
Nc1ccn([C@@H]2O[C@H](COS(=O)(=O)O)[C@@H](O)[C@H]2O)c(=O)n1,-9,3544
COc1ccc2c(c1)[C@H]1[C@H](CO2)[C@H](c2ccccc2)[C@]2(C)C(=O)Nc3ccc(Br)cc3C(=O)N12,-40,2956
CN1/C(=C\C=Nc2ccc3ccccc3c2)C(C)(C)c2ccccc21,-22,5622
C[C@H]1CN([C@@H](C)CO)C(=O)Cc2cc(NC(=O)CCC(F)(F)F)ccc2O[C@H]1CN(C)S(=O)(=O)c1ccc(Cl)cc1,-17,3922
CCOC(=O)[C@H]1[C@H]2COc3ccc(Cl)cc3[C@@H]2N2C(=O)CN(Cc3ccccc3)C(=O)[C@@]12C,-16,3818
C[C@@H](NCCCn1ccc(NC(=O)OCc2ccccc2)nc1=O)c1cccc2ccccc12,0,3566
CC1(C)CC[C@]2(C(=O)O)CC[C@]3(CO)C(=CCC4[C@@]5(C)C[C@H](O)[C@H](O)[C@@](C)(C(=O)O)C5CC[C@]43C)[C@@H]2C1 (some centres not stated),-9,3104
COC(=O)C1=C(c2ccc(F)cc2OCc2ccccc2)C[C@@H]2CC[C@H]1N2C(=O)NCc1ccccc1Br,-10,3730
Cn1nc(C(=O)NNC(=O)CCOc2ccc(C(C)(C)C)cc2)c2ccccc2c1=O,-13,3602
